Source: PubChem BioAssay
HPGD inh: inhibitors of human 15-hydroxyprostaglandin dehydrogenase (HPGD) | P15428 | purified HPGD, NADH fluorescence kinetic, PGE2 substrate | Potency, µM, for inactives: at the highest dose activity change, negative = inhibition, actives largely listed as inhibitors | actives 4.3% (n = 150,000) | AID 894; active = well fitted inhibition curve with a large enough effect (not every such curve was filed as active); inconclusive = small, poorly fitted or top-dose-only effect, or another doubt; inactive = no such curve, though single readings can be large or run the other way;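 also: top concentration of the series not given in the record; plate controls included wells without enzyme; inactives centre near -10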
Target sequence (P15428 whole entry, looked up): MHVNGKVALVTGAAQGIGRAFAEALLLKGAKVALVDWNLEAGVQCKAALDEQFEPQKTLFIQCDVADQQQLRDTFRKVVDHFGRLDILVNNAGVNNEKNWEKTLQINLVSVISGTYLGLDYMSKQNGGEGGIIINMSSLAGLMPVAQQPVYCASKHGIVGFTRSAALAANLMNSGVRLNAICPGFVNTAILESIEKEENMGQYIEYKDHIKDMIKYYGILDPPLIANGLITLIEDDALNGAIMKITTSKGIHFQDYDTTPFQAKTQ
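20 nM HPGD preincubated 15 min at room temperature with compound in 50 mM Tris-HCl pH 8, 0.01% Tween 20. Started with 1 mM NAD+ and 30 uM prostaglandin E2; NADH fluorescence (360/450 nm) read 5 times over 30-s intervals, last minus first.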
Starred values were filed as active, the others as inactive; & = joins results of further samples. % is scaled to controls: 0 for no effect and ±100 for the full control effect; potency is read from the fitted curve at half-maximal effect.

What do the screens show for `Cc1ccc(S(=O)(=O)NC(C)C(c2cccs2)N2CCN(C)CC2)cc1` (configuration not stated)?
HPGD inh: -1%

How did COc1ccc(C(=O)Nc2ccccc2-c2ccccc2)cc1Cl do in these assays?
HPGD inh: -4%

Results for CCCCN1CC[C@@H]2C=CC[C@H](C(=O)OC)[C@@H]2C1=O ?
HPGD inh: -2%

What do the screens show for `CC(C)OC(=O)NC(c1ccccc1)C(Cl)(Cl)Cl` (configuration not stated)?
HPGD inh: -2%

What do the screens show for `CCc1ccccc1NC(=S)NC1CC2CCCC(C1)N2Cc1cccs1` (configuration not stated)?
HPGD inh: -11%

Results for Cc1ccc(S(=O)(=O)N2CCN(Cc3cccc(C)c3O)CC2)cc1 ?
HPGD inh: -15%

What do the screens show for `O=C1CCCC(O)=C1C1C2=C(CCCC2=O)Oc2ccccc21` (configuration not stated)?
HPGD inh: -2%

What do the screens show for `CCOC(=O)[C@H](CCc1ccccc1)N[C@@H](C)C(=O)N1CCC[C@H]1C(=O)O`?
HPGD inh: -2%&-4%&3%

What do the screens show for `Cc1onc(-c2c(Cl)cccc2Cl)c1C(=O)Nc1ccc2c(c1)OCO2`?
HPGD inh: -10%

What do the screens show for `O=C(Nc1nnc(-c2ccc3c(c2)OCCO3)o1)c1ccc(Cc2ccccc2)cc1`?
HPGD inh: inconclusive

What do the screens show for `O=C(C1CCN(S(=O)(=O)c2cccc3nsnc23)CC1)N1CCN(c2ccccc2F)CC1`?
HPGD inh: -7%

How did c1ccc(NCc2nnc3n2CCCCC3)cc1 do in these assays?
HPGD inh: -11%

What do the screens show for `CC(=O)Nc1c(O)n(C)c2ccccc12`?
HPGD inh: -3%

How did CC(=O)N1CCN(C2=NC(=O)C(=C3CCCCC3)S2)CC1 do in these assays?
HPGD inh: -9%

What do the screens show for `CC1(C)OC2C(CO)OC(n3cnc4c(=O)[nH]cnc43)C2O1` (configuration not stated)?
HPGD inh: -7%

How did CC(C)c1nnc(NC(=O)C2CCN(c3nc4ccccc4s3)CC2)s1 do in these assays?
HPGD inh: -14%

What do the screens show for `Nc1cccc(C(F)(F)F)c1`?
HPGD inh: -3%

How did CNC(=O)/C=C1\NC(C)(C)Cc2ccccc21 do in these assays?
HPGD inh: -7%

Results for O=C(CSc1nnc(-c2ccccn2)n1Cc1ccco1)Nc1ccc2c(c1)OCO2 ?
HPGD inh: -3%

Results for C#CCOC(=O)/C(=C/c1ccc(F)cc1)NC(C)=O ?
HPGD inh: 0%

What do the screens show for `Cc1ccsc1/C=C1\SC(N2CCOCC2)=NC1=O`?
HPGD inh: inconclusive

How did CCOC(=O)c1cc(C#N)c(SCC(=O)c2cc(C#N)c(SC)nc2C)nc1C do in these assays?
HPGD inh: -12%

How did CC1=C(C(=O)OC(C)C)C(c2c[nH]c3ccccc23)n2ncnc2N1 (configuration not stated) do in these assays?
HPGD inh: 4%

What do the screens show for `O=S(=O)(Nc1cc(Sc2cccc3cccnc23)c(O)c2ccccc12)c1ccc(F)cc1`?
HPGD inh: 1.3µM*

Results for O=C(NCCCCc1ccccc1)C12CN(Cc3ccccc3)CC1C(c1cccc([N+](=O)[O-])c1)=NO2 (configuration not stated) ?
HPGD inh: -7%

What do the screens show for `COc1cc(OC)cc(C(=O)NC(=S)Nc2cccnc2)c1`?
HPGD inh: -7%

Results for O=C(COC(=O)c1ccc(S(=O)(=O)N2CCCC2)cc1)NCc1ccccc1 ?
HPGD inh: -1%

How did CC(C)SCCCOc1ccc(C(C)(C)C)cc1 do in these assays?
HPGD inh: -5%

Results for C=CCN(CC=C)CCOc1ccccc1 ?
HPGD inh: -2%

Results for Clc1cccc(Cl)c1/C=C/c1nc2ccccc2[nH]1 ?
HPGD inh: inconclusive

How did CCCCCCn1c(SCC(=O)c2c(N)n(C)c(=O)n(C)c2=O)nc2ccccc21 do in these assays?
HPGD inh: 0%

Results for CCCCCCCCCCCC(CC1OC(=O)C1CCCCCC)OC(=O)C(CC(C)C)NC=O (configuration not stated) ?
HPGD inh: -12%

What do the screens show for `CCS(=O)(=O)CCSc1nc(C)cc(C)c1C#N`?
HPGD inh: -2%

What do the screens show for `O=S(=O)(c1ccccc1)N1CCN(S(=O)(=O)c2ccccc2)c2ccccc21`?
HPGD inh: -2%

Results for O=c1[nH]c2c(c3c1CCCC3)CCCC2 ?
HPGD inh: -2%

Results for Cc1cccc(C)c1N1CC(=O)N(c2c(C)cccc2C)CC1=O ?
HPGD inh: -7%

What do the screens show for `CCCOC(=S)NC(=O)c1sc2ccccc2c1Cl`?
HPGD inh: 20µM*

What do the screens show for `O=C(c1csnn1)N1CCC[C@@]2(CCN(C(c3ccccc3)c3ccccc3)C2)C1`?
HPGD inh: -11%

What do the screens show for `Cc1nn(-c2ncc(C(F)(F)F)cc2Cl)c(=O)n1-c1ccccc1`?
HPGD inh: -5%

How did Cc1cc(C)nc(Nc2n[nH]c(-c3cccc4ccccc34)n2)n1 do in these assays?
HPGD inh: -19%

Of the compounds above, 10 contain a halogen.
How did COc1ccc(C(=O)Nc2ccccc2-c2ccccc2)cc1Cl do in these assays?
HPGD inh: -4%

What do the screens show for `CC(C)OC(=O)NC(c1ccccc1)C(Cl)(Cl)Cl` (configuration not stated)?
HPGD inh: -2%

What do the screens show for `Cc1onc(-c2c(Cl)cccc2Cl)c1C(=O)Nc1ccc2c(c1)OCO2`?
HPGD inh: -10%

What do the screens show for `O=C(C1CCN(S(=O)(=O)c2cccc3nsnc23)CC1)N1CCN(c2ccccc2F)CC1`?
HPGD inh: -7%

What do the screens show for `Nc1cccc(C(F)(F)F)c1`?
HPGD inh: -3%

Results for C#CCOC(=O)/C(=C/c1ccc(F)cc1)NC(C)=O ?
HPGD inh: 0%

What do the screens show for `O=S(=O)(Nc1cc(Sc2cccc3cccnc23)c(O)c2ccccc12)c1ccc(F)cc1`?
HPGD inh: 1.3µM*

Results for Clc1cccc(Cl)c1/C=C/c1nc2ccccc2[nH]1 ?
HPGD inh: inconclusive

What do the screens show for `CCCOC(=S)NC(=O)c1sc2ccccc2c1Cl`?
HPGD inh: 20µM*

What do the screens show for `Cc1nn(-c2ncc(C(F)(F)F)cc2Cl)c(=O)n1-c1ccccc1`?
HPGD inh: -5%

New compounds follow:
Results for Cc1cccc(-n2nc(C)cc2N)c1 ?
HPGD inh: -3%

Results for CCCNC(=O)CS(=O)(=O)Cc1nc(-c2ccccc2C)oc1C ?
HPGD inh: 0%

What do the screens show for `COc1cc(/C=N/NC(=O)c2cccnc2)ccc1OS(=O)(=O)c1cc(C)ccc1C`?
HPGD inh: -15%

What do the screens show for `Cc1ccc(C)c(NC(=O)CSc2nnc3n2CCCCC3)c1`?
HPGD inh: -5%

Results for CCCOC(=O)c1ccc(NC(=O)c2c(Cl)ccc(Cl)c2OC)cc1 ?
HPGD inh: -8%

How did Cc1ccc(S(=O)(=O)Nc2nc(C)cc(N/N=C/c3ccc(O)cc3)n2)cc1 do in these assays?
HPGD inh: inconclusive

What do the screens show for `C/C(N=NC(=[SH+])SCc1ccccc1)=C1\C=CC=CN1.[Cl][Cu]`?
HPGD inh: 3.5µM*

What do the screens show for `Cc1cc(C(=O)CN(Cc2ccc(F)cc2)S(=O)(=O)c2ccc3c(c2)OCCO3)c(C)n1C`?
HPGD inh: -12%

How did COc1ccc(NC(=O)C2CCN(C(=O)NCc3ccccc3)CC2)cc1 do in these assays?
HPGD inh: -14%

What do the screens show for `CCOC(=O)N1CCN(C(=O)c2cc(S(=O)(=O)N3CCCC3)cn2C)CC1`?
HPGD inh: -18%

What do the screens show for `Cc1ccc2c(c1)C1CN(C)CCC1N2C(=O)c1ccccc1NS(=O)(=O)c1ccc(F)cc1` (configuration not stated)?
HPGD inh: -3%

Results for CC(C)CN(CC(C)C)C(=O)C12CCC(C)(C(=O)C1)C2(C)C (configuration not stated) ?
HPGD inh: 0%

What do the screens show for `CC(C)(C)C(=O)NC1CCN(S(=O)(=O)c2ccccc2F)CC1`?
HPGD inh: -8%

How did CCc1ccccc1NC(=O)C1NC(=O)CC1c1ccccc1 (configuration not stated) do in these assays?
HPGD inh: -5%

How did CCOc1ccc(C(O)c2nccn2Cc2ccccc2)cc1 (configuration not stated) do in these assays?
HPGD inh: -4%

How did CN1CCN(c2oc(-c3ccco3)nc2S(=O)(=O)c2ccccc2)CC1 do in these assays?
HPGD inh: -16%

How did CN(C)c1ccnc(N(Cc2ccccc2)Cc2ccccc2)c1C#N do in these assays?
HPGD inh: -12%

Results for CC(C)OC(=O)CSc1nnc(-c2ccco2)n1N ?
HPGD inh: -9%

What do the screens show for `COc1ccc(NC(=O)Nc2cccc([N+](=O)[O-])c2)cc1Cl`?
HPGD inh: -15%

What do the screens show for `O=C(CSc1nnc2c(Cl)cc(C(F)(F)F)cn12)NCc1ccc(F)cc1`?
HPGD inh: -25%

How did COc1ccc(C(=O)/C=C/c2ccc(O)cc2)c(O)c1CC=C(C)C do in these assays?
HPGD inh: -3%

Results for CC(C)COC(=O)/C(C#N)=C/c1cn(Cc2ccccc2)c2ccccc12 ?
HPGD inh: -21%

What do the screens show for `Cc1cccc(NC(=S)NNC(=S)NCc2ccccc2)c1`?
HPGD inh: inconclusive

Results for COc1ccc([C@H]2c3cc(OC)c(OC)cc3C[C@@H](C)[C@@H]2C)cc1OC ?
HPGD inh: -2%

Results for CSc1nnc(Nc2ccccc2C)s1 ?
HPGD inh: -9%

What do the screens show for `CCOc1ccccc1C(=O)OCC(=O)Nc1cc(Cl)ccc1Oc1ccccc1`?
HPGD inh: -15%

What do the screens show for `Cc1ccc(-c2nn(C)c(=O)c3ccccc23)cc1CNC(=O)CSc1nc2ccccc2o1`?
HPGD inh: -11%

How did O=C(CN(Cc1ccccc1)S(=O)(=O)c1ccccc1)N/N=C/c1ccc2c(c1)OCO2 do in these assays?
HPGD inh: 11µM*

What do the screens show for `CCc1ncc(C(O)c2cccc(OC)c2OC)n1C` (configuration not stated)?
HPGD inh: -3%

Results for Oc1ccccc1/C=N/n1c(-c2cccs2)n[nH]c1=S ?
HPGD inh: 2.5µM*

How did O=C(Nc1ccccc1)c1ccccc1N=Cc1ccccc1O do in these assays?
HPGD inh: inconclusive

How did COc1ccc(NC(=S)N(CCCN2CCCC2)Cc2cccs2)cc1 do in these assays?
HPGD inh: -12%

How did c1ccc(-c2ccccc2-c2nc(-c3cccnc3)no2)cc1 do in these assays?
HPGD inh: -23%

Results for CCOc1ccccc1Nc1nnc(SCC(=O)NC(=O)c2cccn2C)s1 ?
HPGD inh: -21%

How did CC(CC(=O)Nc1nncs1)c1ccccc1 (configuration not stated) do in these assays?
HPGD inh: -1%

What do the screens show for `Oc1ccc(/C=N/NC(=S)Nc2cccnc2)c(O)c1`?
HPGD inh: inconclusive

How did COC(=O)CN(C#N)c1nc(OC)nc(N(C)C)n1 do in these assays?
HPGD inh: -3%

Results for OCCNCCCOc1cccc(Cl)c1Cl ?
HPGD inh: -4%

How did C/C(=N\NC(=O)C(NC(=O)c1ccccc1)C(C)C)c1ccccc1 (configuration not stated) do in these assays?
HPGD inh: -10%

Results for C/C(CC(=O)NCc1ccco1)=N\NC(=O)Cc1ccc(-c2ccccc2)cc1 ?
HPGD inh: -9%

How did O=C(NCc1ccc2c(c1)OCO2)c1cccc(C(=O)NCc2ccc3c(c2)OCO3)c1 do in these assays?
HPGD inh: -15%

What do the screens show for `CCc1cn([C@H]2C[C@H](O)[C@@H](CO)O2)c(=O)[nH]c1=O`?
HPGD inh: -6%

What do the screens show for `O=c1c2ccccc2nc(SCc2cn3ccsc3n2)n1-c1ccccc1F`?
HPGD inh: inconclusive

What do the screens show for `CCCCOCCCNC(=O)c1ccc(OCC)cc1`?
HPGD inh: -16%

What do the screens show for `CCCn1c(C)cc(/C=C(\C#N)C(=O)OCC(=O)NC(=O)NC(C)(C)C)c1C`?
HPGD inh: -22%

What do the screens show for `CC(C)c1ccc(N(C(=O)c2csnn2)C(C(=O)NC(C)(C)C)c2ccncc2)cc1` (configuration not stated)?
HPGD inh: -13%

How did COc1cc(C(=O)NCc2ccccn2)ccc1OCc1c(C)noc1C do in these assays?
HPGD inh: -7%

What do the screens show for `CCOc1ccc2ccccc2c1/C=N/NC(=O)CC1(C)OCCCO1`?
HPGD inh: -18%

Results for Cc1ccc2nc(N(CCCN(C)C)C(=O)c3sc4ccccc4c3Cl)sc2c1 ?
HPGD inh: -8%

Results for CCOC(=O)c1c(NC(=O)CN(CC)CC)sc2c1CCC2 ?
HPGD inh: -21%

How did COc1ccc(C2Cc3ccccc3C(=O)O2)cc1 (configuration not stated) do in these assays?
HPGD inh: -11%

How did COc1ccccc1/C=C/C(=O)NCC(=O)N/N=C/c1cc(Br)ccc1OC do in these assays?
HPGD inh: -10%

What do the screens show for `COc1ccc(CNC(=O)c2csc(Cc3ccccc3)n2)cc1`?
HPGD inh: -16%

Results for COC(=O)COc1nc(C)c(Br)c(OC)n1 ?
HPGD inh: -2%

How did O=C(O)CCN(CCC(=O)O)S(=O)(=O)c1ccccc1 do in these assays?
HPGD inh: -3%

What do the screens show for `O=C(OC(C(=O)NCC1CCCO1)c1ccccc1F)c1ccco1` (configuration not stated)?
HPGD inh: -12%

How did NC(=O)C(CC(=O)O)NC(=O)[C@@H]1CCCNc2c(I)cc([N+](=O)[O-])cc2C(=O)N[C@@H](CO)C(=O)N[C@@H](Cc2ccc(O)cc2)C(=O)N1 (some centres not stated) do in these assays?
HPGD inh: -4%

What do the screens show for `CNC(=S)N(CCc1ccccc1)Cc1cc2cc(OC)c(OC)cc2[nH]c1=O`?
HPGD inh: inconclusive

How did COc1cccc(-c2csc(N3CCN(Cc4ccccc4)CC3)n2)c1 do in these assays?
HPGD inh: 25µM*

How did Cc1cc(OC(=O)c2c(Cl)cccc2Cl)nc(C)n1 do in these assays?
HPGD inh: -25%

Results for Cc1cc(NS(=O)(=O)c2ccc(NC(=O)c3cc(-c4cccnc4)nc4ccc(Cl)cc34)cc2)no1 ?
HPGD inh: 14µM*

A portion of the library. The share of hits here may be higher or lower than overall.
